# VDR inh: Inhibitors of the vitamin D receptor (VDR): qHTS | AID 504847, 2011 | Vitamin D3 receptor (Homo sapiens), P11473 | Potency, µM, without a hit: max response, negative = inhibition, usual class: inhibitors | VDR-SRC2-3 peptide fluorescence polarization, 2 h | hit rate 0.93% among 400,000; active = well fitted inhibition curve with a large enough effect; inconclusive = small, poorly fitted or top-dose-only effect, or another doubt; inactive = no such curve, though single readings can be large or run the other way; also: series mostly up to about 120 µM
# Target sequence (P11473 whole entry, looked up): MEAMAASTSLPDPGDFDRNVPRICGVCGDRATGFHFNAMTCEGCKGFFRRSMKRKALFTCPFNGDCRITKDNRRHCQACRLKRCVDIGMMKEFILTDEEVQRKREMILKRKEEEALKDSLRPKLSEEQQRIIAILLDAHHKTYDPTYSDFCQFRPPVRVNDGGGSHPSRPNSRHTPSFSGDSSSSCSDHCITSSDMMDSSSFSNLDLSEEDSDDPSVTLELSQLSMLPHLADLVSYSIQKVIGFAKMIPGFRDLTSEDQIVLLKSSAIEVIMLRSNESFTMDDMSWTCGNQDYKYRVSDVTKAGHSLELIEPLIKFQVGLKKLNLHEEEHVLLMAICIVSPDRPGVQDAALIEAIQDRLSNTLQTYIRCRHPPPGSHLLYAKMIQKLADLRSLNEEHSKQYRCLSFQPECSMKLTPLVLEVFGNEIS
#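 VDR–SRC2-3 interaction, FP format. Cmpds 23 nl via pintool, brief spin, 2 h ambient incubation.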
# Numbers without * were called inactive; u = inconclusive; & = joins results of further samples. % is scaled to controls: 0 for no effect and ±100 for the full control effect; potency is read from the fitted curve at half-maximal effect. Not all compounds are listed (hit frequency here may not be typical).
VDR inh	structure
1%	COc1cc(NC(=O)Cn2c(-c3cncs3)nc3ccccc32)cc(OC)c1OC
-11%	CCOC(=O)C1CCCN(C(=S)Nc2ccc(F)cc2)C1 (centres undefined)
8%	COc1cc(/C=N\n2nnnc2N)ccc1OCc1ccc(F)cc1
5%	Cc1ccc2c(c1)c1c(c(=O)n(-c3ccccc3C)c(=O)n1Cc1cccc(F)c1)n2C
5%	CS(=O)(=O)N(CC(=O)N1CCOCC1)c1cccc(Cl)c1Cl
-21%	O=C(O)CCn1cc(/C=C2/NC(=S)N(c3ccccc3)C2=O)c(-c2ccccc2)n1
-7%	Cc1cc(C)c(C#N)c(SCC(=O)N(CC(C)C)C2CCS(=O)(=O)C2)n1 (centres undefined)
2%	CCOC(=O)c1sc(NC(=O)c2cccc(S(=O)(=O)N3CCc4ccccc43)c2)c(C#N)c1C
50µM*	CSC1=NSC2=NC(=O)/C(=C/c3coc4ccccc4c3=O)C(=N)N12
-8%	CC(C)OP(=O)(OC(C)C)C(C)NC(=O)Cc1ccccc1 (centres undefined)
-1%	O=C(NC(=S)Nc1cc(Cl)ccc1O)c1cccc(Br)c1
-8%	C=CCNc1nc2c(c(=O)[nH]c(=O)n2C)n1CCOc1ccccc1
-30%	COc1ccc(NC(C)=O)cc1S(=O)(=O)Nc1ccccc1C(=O)N1CCCC1
7%	Cc1noc(C(=O)Nc2ccc(F)c(Cl)c2)c1Cl
6%	COC(=O)/C(C#N)=C/c1c(N2CCCCCC2)nc2ccccn2c1=O
-18%	CCn1c(C)nc2cc(C(=O)NNC(=S)Nc3ccccc3Cl)ccc21
23%&-4%	COc1ccc(-c2ccc(=N)n(CCCC(=O)O)n2)cc1
-1%	O=C(Nc1nccs1)C1CCN(S(=O)(=O)c2cccnc2)CC1
2%	COC(=O)/C(=C\Nc1ccc(Cl)cc1Cl)NC(=O)c1ccc(Cl)cc1Cl
0%	CCCc1cc(=O)[nH]c(SCC(=O)NC2CCCCC2)n1
-6%	CC(=O)NCCNS(=O)(=O)c1ccc(C)c([N+](=O)[O-])c1
-18%	CCOC(=O)Nc1ccc2c(c1)N(C(=O)CN)c1ccccc1CC2
0%	CC(C)CCN1C(N(C)C)=NC[C@@H]1C
-7%	COc1cccc(-c2nc(N3CCC(C)CC3)c3ccccc3n2)c1O
12%	COn1c(=O)c(-c2ccc(Cl)cc2)[n+]([O-])c2ccccc21
5%	Cc1ccc(S(=O)(=O)N(C)c2ccc(C(=O)N(C)Cc3nc4ccccc4c(=O)[nH]3)cc2)cc1
-4%	Cc1ccc(CN2CN(S(=O)(=O)c3cccs3)c3nc4ccccc4nc32)cc1
-11%	CCC1(CC)NC(=S)NC1=S
-22%	COc1ccc(S(=O)(=O)N2CCN(C)CC2)cn1
-11%	COCc1cc(/C=N\NC(=O)COc2ccccc2)ccc1OC
9%	Cc1cc(=O)oc2cc3c(cc12)OCCN3
15%	COC(=O)c1ccc(OC)c(CN2C(=O)N(c3ccc(C(C)=O)cc3)S(=O)(=O)c3ccccc32)c1
-3%	CCC(=O)c1ccc(OCC(=O)c2ccc3c(c2)NC(=O)CO3)cc1
13%	CCOc1ccc(CNC(=O)c2ccc3c(c2)nc2n3CCOC2)cc1OC
-9%	Cc1nn(-c2ccc3nnc(C)n3n2)c(C)c1CCC(=O)Nc1ccc(OC(F)(F)F)cc1
-12%	CCOC(=O)c1c(/N=C/c2ccc(C)cc2O)sc2c1CCC2
10%	O=C(c1ccccc1)N1CCN(CC2CC=CCC2)CC1 (centres undefined)
-7%	Cc1cccc(N2C(=O)N3[C@H]4c5ccccc5OC[C@@H]4[C@@H](c4ccccc4)[C@@]3(C)C2=O)c1
-13%	Cc1ccc(CC(=O)OCC(=O)c2ccc[nH]2)cc1C
-19%	Oc1ccccc1/C=N/Nc1cc(N2CCCC2)nc(N2CCCC2)n1

# Shown bar-delimited: part of the list above.
SMILES | VDR inh
O=C(Nc1nccs1)C1CCN(S(=O)(=O)c2cccnc2)CC1 | -1%
COC(=O)/C(=C\Nc1ccc(Cl)cc1Cl)NC(=O)c1ccc(Cl)cc1Cl | 2%
CCCc1cc(=O)[nH]c(SCC(=O)NC2CCCCC2)n1 | 0%
CC(=O)NCCNS(=O)(=O)c1ccc(C)c([N+](=O)[O-])c1 | -6%
CCOC(=O)Nc1ccc2c(c1)N(C(=O)CN)c1ccccc1CC2 | -18%
CC(C)CCN1C(N(C)C)=NC[C@@H]1C | 0%
COc1cccc(-c2nc(N3CCC(C)CC3)c3ccccc3n2)c1O | -7%
COn1c(=O)c(-c2ccc(Cl)cc2)[n+]([O-])c2ccccc21 | 12%
Cc1ccc(S(=O)(=O)N(C)c2ccc(C(=O)N(C)Cc3nc4ccccc4c(=O)[nH]3)cc2)cc1 | 5%
Cc1ccc(CN2CN(S(=O)(=O)c3cccs3)c3nc4ccccc4nc32)cc1 | -4%
CCC1(CC)NC(=S)NC1=S | -11%
COc1ccc(S(=O)(=O)N2CCN(C)CC2)cn1 | -22%
COCc1cc(/C=N\NC(=O)COc2ccccc2)ccc1OC | -11%
Cc1cc(=O)oc2cc3c(cc12)OCCN3 | 9%
COC(=O)c1ccc(OC)c(CN2C(=O)N(c3ccc(C(C)=O)cc3)S(=O)(=O)c3ccccc32)c1 | 15%
CCC(=O)c1ccc(OCC(=O)c2ccc3c(c2)NC(=O)CO3)cc1 | -3%
CCOc1ccc(CNC(=O)c2ccc3c(c2)nc2n3CCOC2)cc1OC | 13%
Cc1nn(-c2ccc3nnc(C)n3n2)c(C)c1CCC(=O)Nc1ccc(OC(F)(F)F)cc1 | -9%
CCOC(=O)c1c(/N=C/c2ccc(C)cc2O)sc2c1CCC2 | -12%
O=C(c1ccccc1)N1CCN(CC2CC=CCC2)CC1 (centres undefined) | 10%

# Shown tab-delimited: two of the compounds above.
Compound	VDR inh
Cc1ccc(CC(=O)OCC(=O)c2ccc[nH]2)cc1C	-13%
Oc1ccccc1/C=N/Nc1cc(N2CCCC2)nc(N2CCCC2)n1	-19%

# Following part.
VDR inh	structure
1%	Nc1nc(Cl)nc2c1ncn2[C@@H]1O[C@H](CO)[C@H](O)C1F (some centres undefined)
-20%	O=S(=O)(Nc1cccc(Cl)c1)c1cccc(-n2cnnn2)c1
-5%	Cc1ccc(CNC(=O)c2ccc(N3CCC4(CC3)CC(c3ccccc3)=NO4)c(NC(=O)c3ccco3)c2)cc1
-2%	COc1ccc(-n2c(=O)c(CCc3ccccc3)nc3cnc(N(C)C)nc32)cc1
-1%	Cc1cc(C(=O)N2CCCC(C(=O)c3ccc4ccccc4c3)C2)nn1C (centres undefined)
8%	C=CCn1c(SCC(=O)Nc2ccc3c(c2)OCO3)nnc1-c1cc(Br)ccc1O
9%	CSc1ccc(CCNC(=O)c2ccc(CS(=O)Cc3ccccc3Cl)o2)cc1 (centres undefined)
4%	CC(C)CCn1c(=S)[nH]c2ncccc2c1=O
1%	CC(C)(C)c1cc(NC(=O)c2ccco2)no1
-12%	COc1ccc(N=c2nc(-c3ccc(C)cc3)n(-c3ccccc3)s2)cc1
0%	O=S(=O)(c1ccccc1)N1CCC(O)(CN2CCN(c3ccccc3)CC2)CC1
-6%	Cc1ccc(-c2[nH]c3cc(C(N)=O)ccc3c(=O)c2O)cc1
7%	COc1ccc(CCNC(=O)COC(=O)c2cc(OC)c(OC)cc2OC)cc1
-16%	O=C(CCl)N(C/C=C/c1ccccc1)c1ccc2c(c1)OCCO2
-3%	COc1cccc(CC2(CO)CCCN(Cc3[nH]c4ccc(C)cc4c3C)C2)c1 (centres undefined)
3%	CCn1cc(CN2CCC(n3nccc3NC(=O)c3ccccc3OC)CC2)cn1
12%	COc1ccc(N2CCN(Cc3cc4c(cc3O)CCC4)CC2)cc1
1%	Cc1ccccc1NC(=O)Nc1ccccc1Br
1%	c1ccc(Nc2ncnc3sc4c(c23)CCC4)cc1
u	CCOc1cc(/C=C2\C(=N)N3N=CSC3=NC2=O)ccc1OS(=O)(=O)c1ccccc1
-17%	COCCN(Cc1cc2cc(C)ccc2n2nnnc12)C(=S)Nc1ccccc1C
-10%	CCOC(=O)CSc1ncc(-c2ccc([N+](=O)[O-])cc2)[nH]1
12%	Cc1ncc(CO)c2c1OC(C)(C)OC2
2%	CCC(=O)N1CCc2cc(CNS(=O)(=O)c3ccc(Cl)s3)ccc21
-6%	COc1cccc(CNCCc2c[nH]c3ccccc23)c1OCc1ccccc1F
-13%	CC(=O)N/C(=C/c1ccc([N+](=O)[O-])cc1)C(=O)O
-9%	Cn1c(SCC(=O)Nc2ccccc2)nnc1-c1ccccc1
-17%	COc1ccc2nc(SCC(=O)Nc3ccc(S(=O)(=O)Nc4nccc(C)n4)cc3)[nH]c2c1
-15%	O=C(CN1C(=O)NC2(CCCCCCC2)C1=O)NC1CCCc2ccccc21 (centres undefined)
10%	O=C(CN1C(=O)NC2(CCCC2)C1=O)NNC(=O)c1ccc(F)cc1
-6%	Cc1ccc(OCCn2cc(/C=C3\C(=O)NN(c4ccccc4)C3=O)c3ccccc32)cc1
-2%	N#Cc1ccsc1NC(=O)CN1CCN(S(=O)(=O)c2ccc3ccccc3c2)CC1
-12%	CN(C)C(CNC(=O)c1ccc(S(=O)(=O)Nc2ccccc2F)cc1)c1ccco1 (centres undefined)
11%	COc1cc(CNC(=O)c2ccc3c(c2)c(C)c(C)n3Cc2cccc(C)c2)cc(OC)c1OC
-3%	CCN(c1ccccc1)S(=O)(=O)c1cccc(C(=O)N(C)CC(=O)Nc2ccc(F)c(F)c2F)c1
-11%	CCN1CCN(S(=O)(=O)c2ccc(Cl)c(C(=O)N(C)Cc3ccc(C(C)(C)C)cc3)c2)CC1
-11%	COC(=O)c1c(NC(=O)CC2Sc3ccc(C(F)(F)F)cc3NC2=O)sc(C)c1C (centres undefined)
-6%	CCOC(=O)c1ccccc1OCc1cc(C2Nc3ccccc3C(=O)N2c2cccc3ccccc23)ccc1OC (centres undefined)
1%	N#Cc1ccc(NC(=O)COC(=O)C2=COCCO2)cc1
-5%	CC(C)(C)OC(=O)N1CCCN(C(=O)c2ccc(Cl)cc2)CC1
-1%	OC1CC(c2ccco2)NC2(CCCCC2)C1 (centres undefined)
-4%	CCC(CC)c1nn2c(=O)cc(COc3ccc(NC(=O)c4cccc(Cl)c4)cc3)nc2s1
3%	CSc1nnc(Cn2c(=O)sc3ccccc32)n1-c1cccc(Cl)c1
-7%	CC(=O)NC(CC(=O)OCC(=O)c1cc(C)ccc1C)c1ccccc1 (centres undefined)
3%	CC(C)CC(=O)OCC(=O)Nc1ccccc1Sc1ccccc1
-5%	CCN(CC)C(=O)CSc1nnnn1-c1ccc(F)c(Cl)c1
20%	CN1CCN(CC(=O)N(C)c2nc(-c3ccccc3)cs2)CC1
10%	Cc1cc(NC(=O)CSc2nc(C3CC3)nc3sc4c(c23)CCC(C)C4)no1 (centres undefined)
1%	Cc1ccc(N2CC(C(=O)Nc3ccccc3OC(F)F)CC2=O)cc1 (centres undefined)
-12%	Cc1ccc(C)c(NC(=O)COc2coc(CN3CCc4ccccc4C3)cc2=O)c1
-6%	N#CCN1CCN(CCC(=O)Nc2ccc(OCc3ccccc3)cc2)CC1
5%	O=C(Nc1ccncc1)OCc1ccccc1
5%	O=C(OCC(=O)c1cccs1)C1=COCCO1
11%	COc1cc(C2c3c(-c4ccccc4O)n[nH]c3C(=O)N2Cc2ccncc2)ccc1O (centres undefined)
4%	O=C(NC1CCCCC1)c1ccc2[nH]c(=O)c(=O)[nH]c2c1
-13%	CC(C)n1c(O)c(/C=C2\C=NN=C2c2ccccc2)sc1=S
1%	Cc1ccc(C)c(-c2cc(C(=O)Nc3nccs3)c3ccccc3n2)c1
u	CCOCCCNC(=O)c1cc2c(s1)-c1ccccc1SC2
14%	CCc1ccc(/C(C)=N/Nc2cc(Cl)nc(C)n2)cc1
12%	COc1ccc(/C(N)=N/OC(=O)Cc2ccccc2OC)cc1

# More results follow:
VDR inh	structure
-2%	CNc1ccc(Br)cc(C(=O)/C=C/c2cccc(OC)c2OC)c1=O
-8%	O=C(CCN=C1NS(=O)(=O)c2ccccc21)OCC(=O)c1ccc(F)c(F)c1
-6%	Cc1ccccc1-c1nc(CN2CCCC(C(=O)NCc3ccc(Cl)cc3)C2)c(C)o1 (centres undefined)
9%	Cc1ccc(N(CC(=O)NC(C)(C)C)C(=O)CNC(=O)c2cccs2)c(C)c1
15%	Cc1ccc(Nc2nc3c(S(=O)(=O)c4ccccc4)nnn3c3ccsc23)c(C)c1
3%	Cc1cccc(NC(=O)c2ccoc2C)n1
15%	CCCC(=O)Nc1ccc(C(=O)NCC2CCCO2)cc1 (centres undefined)
11%	COc1ccc(-n2c(SCC(=O)Nc3cc(C)on3)nc3c([nH]c4ccccc43)c2=O)cc1OC
-8%	Cc1ccc2nc(SCc3nc4c(cnn4-c4ccccc4)c(=O)[nH]3)[nH]c2c1
10%	O=C(c1ccco1)N1CCN(Cc2nnc(-c3cccc(Cl)c3)o2)CC1
8%	CN(C)c1ccc(C=Nc2ccccc2C(N)=O)cc1
13%	COc1ccccc1CNC(=O)C1(NC(=O)Nc2ccc(C)cc2)CCCCC1
14%	CC(C)c1ccc(NC(=O)CSc2n[nH]c(=O)n2-c2ccc3c(c2)OCCO3)cc1
-4%	N#Cc1c(NC(=O)COC(=O)c2ccc(F)cc2)sc2c1CCC2
-9%	Nc1nonc1NC(=O)NN=C1CCCCC1
-2%	O=C(c1cccs1)n1cc(C(=S)N2CCOCC2)c2ccccc21
-1%	CC1(C)C(C=C(Cl)Cl)C1C(=O)N(Cc1ccc(Cl)cc1)C1CCS(=O)(=O)C1 (centres undefined)
10%	Cc1ccc2oc(C(=O)Nc3cccc(Cl)c3)cc(=O)c2c1
4%	Cc1cccc2c(=O)c(-c3ccc(Cl)cc3)c(NC(=O)c3ccco3)oc12
-16%	CC(=O)c1cc2c(cc1NS(=O)(=O)c1ccccc1F)OCO2
10%	O=C(Nc1cccc(S(=O)(=O)N2CCOCC2)c1)c1ccco1
7%	C[C@@H]1CN(C(=O)c2nc3ccc(Cl)cn3c2CN[C@H]2CCCCNC2=O)C[C@H](C)O1
3%	CCC(=O)c1c[nH]c(C(=O)NCC2CCCO2)c1 (centres undefined)
10%	CCOCCCNC(=O)NC(CCC(C)C)c1c(-n2cccc2)sc2c1CCN(C)C2 (centres undefined)
